LANA-H2A inh – blocks KSHV LANA binding to histone H2A/H2B. Q9QR71. inhibition, % (concentration not given with the values). 320,000 compounds, 0.6% hits. cell-free LANA-H2A/H2B peptide, fluorescence polarization; in the data active = inhibition mostly above about 10%, no sharp cut-off; inactive = mostly below about 6.7%;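 also: stock transfer was 7.5 nL into about 10 µL; 0% = median of vehicle wells and 100% = median of positive control wells; one replicate is shown; the record names a cut of 25% in any replicate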
Target sequence (Q9QR71 whole entry, looked up): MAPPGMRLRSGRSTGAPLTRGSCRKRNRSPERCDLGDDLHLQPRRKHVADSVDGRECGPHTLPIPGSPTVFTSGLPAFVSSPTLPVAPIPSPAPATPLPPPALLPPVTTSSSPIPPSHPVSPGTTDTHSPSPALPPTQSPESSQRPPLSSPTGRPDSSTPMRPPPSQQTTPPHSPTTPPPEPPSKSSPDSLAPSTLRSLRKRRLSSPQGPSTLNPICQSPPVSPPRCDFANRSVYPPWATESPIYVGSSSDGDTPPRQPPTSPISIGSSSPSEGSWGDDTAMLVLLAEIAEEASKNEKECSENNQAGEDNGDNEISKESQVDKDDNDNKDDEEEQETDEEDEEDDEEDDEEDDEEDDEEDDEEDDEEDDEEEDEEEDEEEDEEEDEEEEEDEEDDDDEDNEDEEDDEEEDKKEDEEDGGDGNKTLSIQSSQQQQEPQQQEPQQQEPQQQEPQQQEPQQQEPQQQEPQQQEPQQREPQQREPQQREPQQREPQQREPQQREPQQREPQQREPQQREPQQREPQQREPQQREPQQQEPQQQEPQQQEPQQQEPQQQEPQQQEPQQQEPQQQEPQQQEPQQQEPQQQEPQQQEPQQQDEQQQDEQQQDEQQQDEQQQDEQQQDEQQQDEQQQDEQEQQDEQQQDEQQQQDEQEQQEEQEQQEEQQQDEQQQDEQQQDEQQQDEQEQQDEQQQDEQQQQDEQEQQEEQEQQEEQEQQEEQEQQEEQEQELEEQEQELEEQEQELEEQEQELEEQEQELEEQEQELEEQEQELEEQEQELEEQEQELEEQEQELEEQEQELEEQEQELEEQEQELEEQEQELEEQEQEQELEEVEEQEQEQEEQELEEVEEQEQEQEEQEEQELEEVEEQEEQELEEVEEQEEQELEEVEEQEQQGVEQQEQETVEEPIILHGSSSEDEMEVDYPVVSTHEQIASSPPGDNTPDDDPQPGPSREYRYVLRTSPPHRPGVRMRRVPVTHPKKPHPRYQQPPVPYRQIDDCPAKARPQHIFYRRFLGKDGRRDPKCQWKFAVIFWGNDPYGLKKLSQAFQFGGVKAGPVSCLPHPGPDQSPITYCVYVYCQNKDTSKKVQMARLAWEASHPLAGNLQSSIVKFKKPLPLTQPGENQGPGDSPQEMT
ALR H2O2 inh – blocks human ALR sulfhydryl oxidase activity; purified ALR, DTT oxidation, H2O2 HRP-luminol luminescence; 290,000 compounds, 3.8% hits; P55789; inhibition, % (no concentration beside the values);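 active = mean and each replicate at 75% or more; inconclusive = only one of the two met; inactive = neither met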;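 also: stock transfer was 7.5 nL into about 7.5 µL; 0% = neutral wells and 100% = wells with inactivated enzyme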
Vif TR-FRET – inhibitors of Vif binding to APOBEC3G peptide, primary screen, biochemical, TR-FRET, GST-Vif 1-94, biotin-A3G peptide, dose response retest (AID 1117319); 260,000 compounds, 0.57% hits; TR-FRET GST-Vif / biotin-A3G peptide binding; higher % means a stronger effect; test concentration not given here; strong numbers were not always called active; one-dose inhibition, %; IC50 in µM for titrated hits;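 active = above the screen mean plus three standard deviations and confirmed in dose response; inconclusive = results disagree or hit not tested in dose response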;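 also: Vif residues 1-94 fused to GST binding biotinylated APOBEC3G peptide 110-148; 0% = full assay without inhibitor and 100% = GST in place of GST-Vif; retest series ran down from 100 µM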
Calb FLC – C. albicans growth modulation with fluconazole. C. albicans CaCi-2 (fluconazole-resistant clinical isolate) + fluconazole, Alamar Blue growth, 48 h. growth inhibition, % (concentration not given with the values). 300,000 compounds, 0.57% hits. AID 1979;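 active = most replicates above 75%; inconclusive = exactly half above 75%; inactive = most below 75%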;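 also: all wells also contain fluconazole at 8 µg/ml as a sub-toxic cotreatment; 0% = median of DMSO wells and 100% = median of geldanamycin control wells; wells of about 8 µL received 7.5 nL stock; the first replicate is given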
B2AR ag – human beta-2 adrenergic receptor agonism by FAP; Am2.2-beta2AR cells, FAP receptor internalization, flow cytometry; reference of the scale not given here; 340,000 compounds, 0.43% hits; P07550; response, % (concentration not given with the values); AID 504454;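 active = response above a set limit, near 3 SD of response in nonfluorescent compounds, cut at about 42% in these data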;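 also: stock transfer was 100 nL into about 11 µL; a reference agonist was the positive control; negative values mostly stem from fluorescent compounds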
RanGTP-Imp inh – disruptors of Ran-importin-beta complex formation – biochemical, FRET, CFP-Ran, YFP-importin-beta, homogeneous, primary screen; 300,000 compounds, 1.1% hits; cell-free CFP-Ran/YFP-importin-beta FRET ratio; inhibition, % (test concentration not listed);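 active = most replicates above 15%; inconclusive = exactly half above 15%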;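 also: 0% = DMSO wells and 100% = Ran loaded with GDP instead of GTP; wells of about 40 µL received 100 nL stock; the first replicate is given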
HNF4A DNA FP – change in binding of human HNF4 alpha to DNA | activity change, % at 10 µM | AID 1224865 | HNF4a-FITC DNA binding, fluorescence polarization, 1 h | P41235 | 360,000 compounds, 0.3% hits; in the data active = activity change above about 30%, passing the limit was not always enough;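 also: controls were the assay level and a saturating level of protein; the project sought stronger binding though the title names inhibitors; some compounds called inactive have numbers as strong as hits; positive values seem to mean higher polarization but the record does not say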
Starred values were filed as active, the others as inactive; & = joins results of further samples. Random draw from the library; overall some 6.3% were active at least once.

O=[N+]([O-])c1ccc(C(O)CN2CCOCC2)cc1 (stereo not given) was read as LANA-H2A inh -3.7, ALR H2O2 inh -3, Calb FLC -3, B2AR ag -1, RanGTP-Imp inh inconclusive and HNF4A DNA FP -0.5.
For Cc1nnc(SCC(=O)NNC(=O)c2ccc(Cl)cc2)n1CC1CCCO1 (stereo not given) the results were LANA-H2A inh -0.5, ALR H2O2 inh -17, Vif TR-FRET 7%, Calb FLC -17, B2AR ag -2, RanGTP-Imp inh 0.1 and HNF4A DNA FP 1.7.
S=C(NCCCN1CCOCC1)N1CCN(c2nc(-c3ccccc3)cs2)CC1 was read as LANA-H2A inh 2.8, Vif TR-FRET 6%, Calb FLC 2, B2AR ag 7, RanGTP-Imp inh 0.6 and HNF4A DNA FP 2.0.
O=C(O)c1cccc(NCc2ccncc2)c1 was read as LANA-H2A inh 2.4, ALR H2O2 inh -5, Vif TR-FRET >100µM*, Calb FLC 8 and RanGTP-Imp inh 0.5.
`O=C(CCNS(=O)(=O)c1cccc2nsnc12)NCc1ccccc1Cl` gave LANA-H2A inh -2.4, ALR H2O2 inh -5, Calb FLC 11, B2AR ag 1, RanGTP-Imp inh -0.1 and HNF4A DNA FP -3.9.
Screening CCOc1cccc(/C(O)=C2/C(=O)C(=O)N(CCOC)C2c2ccco2)c1 (stereo not given) returned LANA-H2A inh -3.3, ALR H2O2 inh 4, Vif TR-FRET 8%, Calb FLC -1, B2AR ag 1, RanGTP-Imp inh -3.0 and HNF4A DNA FP -1.6.
COC(=O)c1cccc(-c2ccc(C(c3c(C)[nH][nH]c3=O)c3c(C)[nH][nH]c3=O)o2)c1 was read as LANA-H2A inh 2.0, ALR H2O2 inh -3, Vif TR-FRET 15%, Calb FLC -3, B2AR ag 8, RanGTP-Imp inh 2.6 and HNF4A DNA FP -0.6.
CN(c1ccccc1)S(=O)(=O)c1cccc(NC(=O)C2=NNC(=O)CC2)c1 was read as LANA-H2A inh -3.4, ALR H2O2 inh -11, Vif TR-FRET 1%, B2AR ag 0 and HNF4A DNA FP -1.0.
Cc1cc(=O)n(CC(=O)NC2CC2)c2c1c(C)nn2-c1ccccc1 was read as LANA-H2A inh 7.0, ALR H2O2 inh -1, Calb FLC 9, B2AR ag 4, RanGTP-Imp inh -0.1 and HNF4A DNA FP 0.0.
Screening Cc1nc2c(C)cccn2c(=O)c1NC(=O)c1ccc(Br)o1 returned LANA-H2A inh -0.9, Vif TR-FRET -6%, Calb FLC 6, B2AR ag 1, RanGTP-Imp inh 0.3 and HNF4A DNA FP 3.1.
Cc1cc(C)cc(NC(=O)C2C3C=CC4(O3)C2C(=O)N(CCCN2CCCC2)C4C(=O)NC2CCCC(C)C2C)c1 (stereo not given) was read as LANA-H2A inh -1.3, Calb FLC 17, B2AR ag -1, RanGTP-Imp inh 1.4 and HNF4A DNA FP -0.4.
For CCC[n+]1c(C)sc2c(OC)ccc(OC)c21 the results were LANA-H2A inh -0.2, ALR H2O2 inh 26, Vif TR-FRET 19%, Calb FLC -12, B2AR ag 8, RanGTP-Imp inh 2.4 and HNF4A DNA FP 1.5.
`CCN(CC)c1ccc2c(C)c(Cl)c(=O)oc2c1` gave LANA-H2A inh -1.5, ALR H2O2 inh 62, Vif TR-FRET -12%, Calb FLC 2, B2AR ag 11, RanGTP-Imp inh 108* and HNF4A DNA FP -14.
For Cc1ccc(S(=O)(=O)N2CCN(C(=S)NCC3CCCO3)CC2)cc1 (stereo not given) the results were LANA-H2A inh 0.5, ALR H2O2 inh 1, Vif TR-FRET -1%, Calb FLC 1, B2AR ag -4, RanGTP-Imp inh -0.2 and HNF4A DNA FP -1.8.
`Cc1c(NC(=O)COC(=O)/C=C/c2cccc(Br)c2)c(=O)n(-c2ccccc2)n1C` gave LANA-H2A inh -2.7, ALR H2O2 inh 13, B2AR ag 4 and HNF4A DNA FP -1.0.
OC(COC(c1ccc(F)cc1)c1ccc(F)cc1)CN1CCc2ccccc2C1 (stereo not given) was read as LANA-H2A inh -6.4, ALR H2O2 inh -64, Calb FLC 2, B2AR ag -1, RanGTP-Imp inh 8.0 and HNF4A DNA FP -0.9.
`CC(=O)Nc1ccc(NC(=O)COC(=O)C2(c3ccc(Cl)cc3)CCCC2)cc1` gave LANA-H2A inh -3.3, ALR H2O2 inh 55, Vif TR-FRET 8%, Calb FLC 0, B2AR ag -7, RanGTP-Imp inh 5.6 and HNF4A DNA FP 1.2.
`CCc1ccc2c(c1)/C(=C/C(=O)c1cccs1)C(=O)N2` gave LANA-H2A inh -0.5, ALR H2O2 inh 11, Vif TR-FRET 13%, Calb FLC 98*, B2AR ag 78*, RanGTP-Imp inh -0.5 and HNF4A DNA FP 1.5.
Screening COC(=O)CCSCc1cn2cc(Cl)ccc2n1 returned LANA-H2A inh -3.4, ALR H2O2 inh 13, Vif TR-FRET -2%, Calb FLC -1, B2AR ag -6, RanGTP-Imp inh 1.9 and HNF4A DNA FP 2.4.
For O=C(Nc1cc(S(=O)(=O)N2CCOCC2)ccc1N1CCCC1)c1ccc2c(c1)S(=O)(=O)c1ccccc1C2=O the results were LANA-H2A inh 1.8, ALR H2O2 inh 14, Vif TR-FRET 22%, Calb FLC -10, B2AR ag 8, RanGTP-Imp inh 3.5 and HNF4A DNA FP 0.4.
O=C(Cc1ccccc1)NCC(=O)N1CCC2(CC1)NCCc1[nH]cnc12 was read as LANA-H2A inh -2.3, Calb FLC -9, B2AR ag 0, RanGTP-Imp inh 5.5 and HNF4A DNA FP -0.5.
`Cc1ccsc1C(=O)Nc1ccc(O)c(-c2nc3ccccc3s2)c1` gave LANA-H2A inh 3.7, ALR H2O2 inh 7, Vif TR-FRET 20%, Calb FLC 10, B2AR ag 8, RanGTP-Imp inh 5.6 and HNF4A DNA FP 5.4.
Screening C#CCOCCOCCOCCNc1nc(N2CCN(C(=O)C([C@@H](C)CC)n3cc(C(N)CO)nn3)CC2)nc(N2CCN(C(=O)[C@H](CCC(=O)O)n3cc(C(N)Cc4ccc(O)cc4)nn3)CC2)n1 (stereo not given in full) returned Vif TR-FRET 13%, Calb FLC -6 and RanGTP-Imp inh 1.8.
For O=C(CSc1nc2ccccc2s1)Nn1cnnc1 the results were LANA-H2A inh 2.7, ALR H2O2 inh 99*, Vif TR-FRET 6%, Calb FLC 2, B2AR ag -1, RanGTP-Imp inh 3.6 and HNF4A DNA FP 1.5.
`CC(C)(C)C1CCc2c(sc3nc(SCC(=O)O)nc(N)c23)C1` (stereo not given) gave LANA-H2A inh 4.4, ALR H2O2 inh -25, Vif TR-FRET -2%, Calb FLC 0, B2AR ag -6, RanGTP-Imp inh 1.1 and HNF4A DNA FP -2.6.
For CN1CCN(S(=O)(=O)c2ccc(Br)c3nsnc23)CC1 the results were LANA-H2A inh 6.4, ALR H2O2 inh -17, Vif TR-FRET inconclusive, Calb FLC -8, B2AR ag -12, RanGTP-Imp inh -0.7 and HNF4A DNA FP 4.0.
`CCn1nnc2cc(C(=O)Nc3cc(OC)cc(OC)c3)ccc21` gave LANA-H2A inh -2.4, Vif TR-FRET -3%, Calb FLC 0, B2AR ag -5, RanGTP-Imp inh 0.2 and HNF4A DNA FP 10.
For CCN(CC)C(=O)C1CCCN(Cc2sccc2C)C1 (stereo not given) the results were LANA-H2A inh 1.0, ALR H2O2 inh -4, Vif TR-FRET 2%, Calb FLC -3, B2AR ag 10, RanGTP-Imp inh -1.4 and HNF4A DNA FP -1.0.
`CCCCN1C2CCCC1CC(NC(=O)c1cccc(Cl)c1)C2` (stereo not given) gave LANA-H2A inh 4.9, Calb FLC -1, B2AR ag 9, RanGTP-Imp inh 1.0 and HNF4A DNA FP 4.0.
Cc1cccc(CS(=O)(=O)c2ncc(Cl)c(C(=O)NCc3ccc4c(c3)OCO4)n2)c1 was read as LANA-H2A inh -0.8, ALR H2O2 inh 4, Calb FLC 1, B2AR ag 13, RanGTP-Imp inh 4.4 and HNF4A DNA FP 5.3.
Screening O=C(O)c1cccc(S(=O)(=O)N2Cc3ccccc3C2)c1 returned LANA-H2A inh 0.1, ALR H2O2 inh -5, Vif TR-FRET 9%&0%, Calb FLC -5, B2AR ag 5, RanGTP-Imp inh 10.0 and HNF4A DNA FP -0.1.
O=C(c1cccc(-n2cnnn2)c1)N1CCOCC1 was read as LANA-H2A inh 2.8, ALR H2O2 inh -2, Vif TR-FRET 11%, Calb FLC -6, B2AR ag -4, RanGTP-Imp inh 8.5 and HNF4A DNA FP 0.0.
For Cc1[nH]n(-c2ccccc2)c(=O)c1/C=C1\C=NN=C1c1ccccc1 the results were LANA-H2A inh 0.9, ALR H2O2 inh 14, Vif TR-FRET -6%, Calb FLC -1, B2AR ag 12, RanGTP-Imp inh 3.3 and HNF4A DNA FP 3.7.
S=C(Nc1ccc(Br)cc1)N1CCN(C2CCCCC2)CC1 was read as LANA-H2A inh -7.1, ALR H2O2 inh 11, Vif TR-FRET 18%, Calb FLC -7, B2AR ag 16, RanGTP-Imp inh -0.2 and HNF4A DNA FP -2.5.
CC(OC(=O)c1ccc(Cl)c(S(=O)(=O)N2CCc3ccccc32)c1)C(=O)Nc1ncc(Cl)cc1Cl (stereo not given) was read as LANA-H2A inh -3.5, ALR H2O2 inh -14, Calb FLC -4, B2AR ag 3, RanGTP-Imp inh 6.8 and HNF4A DNA FP -1.2.
O=C(CN1C(=O)NC2(CCCC2)C1=O)OCCOc1ccc(Cl)cc1Cl was read as Vif TR-FRET 3%, Calb FLC -4, B2AR ag 0, RanGTP-Imp inh 7.2 and HNF4A DNA FP -2.2.
Screening N#Cc1ccccc1CN1C(=O)S/C(=C/c2cccn2-c2cccc(C(=O)O)c2)C1=O returned LANA-H2A inh -1.3, Vif TR-FRET 18µM*, Calb FLC 24, B2AR ag 1, RanGTP-Imp inh 1.6 and HNF4A DNA FP -11.
O=C(N/C=C\n1cnc2cc(C(F)(F)F)ccc21)c1ccc([N+](=O)[O-])cc1 was read as LANA-H2A inh -3.5, ALR H2O2 inh 2, Calb FLC 13, B2AR ag 11, RanGTP-Imp inh 3.4 and HNF4A DNA FP -0.1.
`Nc1cc(C(F)(F)F)cc2c1SCC(=O)N2` gave LANA-H2A inh 4.3, ALR H2O2 inh -8, Vif TR-FRET 4%, Calb FLC -2, B2AR ag 21, RanGTP-Imp inh -2.4 and HNF4A DNA FP -1.9.
`Cc1cc(F)ccc1NCc1ccc([N+](=O)[O-])cc1` gave LANA-H2A inh 3.1, ALR H2O2 inh 8, Vif TR-FRET 17%, Calb FLC 12, B2AR ag 1, RanGTP-Imp inh 1.0 and HNF4A DNA FP 1.2.
`CCc1nnc(NC(=O)NC(C)(C)C)s1` gave LANA-H2A inh -2.2, ALR H2O2 inh -7, Vif TR-FRET -3%, Calb FLC -13, B2AR ag -7, RanGTP-Imp inh 1.9 and HNF4A DNA FP 1.6.
For CN1CCN(c2ccc(S(=O)(=O)N3CCCCC3)cc2NC(=O)c2ccc(C#N)cc2)CC1 the results were LANA-H2A inh -4.9, ALR H2O2 inh -17, Vif TR-FRET 1%, Calb FLC 13, B2AR ag 1, RanGTP-Imp inh 2.8 and HNF4A DNA FP 3.0.
For C=C(C)CNC(=S)N/N=C/c1ccco1 the results were LANA-H2A inh -3.6, Calb FLC inconclusive, B2AR ag -6, RanGTP-Imp inh 7.1 and HNF4A DNA FP -1.6.
Screening CC(=O)c1cccc(NC(=O)NC2CCCCCCC2)c1 returned LANA-H2A inh 1.5, ALR H2O2 inh -13, Vif TR-FRET -1%, Calb FLC 2, B2AR ag -10, RanGTP-Imp inh 0.9 and HNF4A DNA FP 1.4.

High-throughput results (PubChem)
